Source: PubChem (several laboratories)
CSC inhib – blocks cancer stem cells. 1.1% of 300,000 active. inhibition, % at 7.5 µM. cancer stem cell-like cells viability, luminescence;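 active = mean at 75% or more and at least half the replicates too; inconclusive = mean and replicates disagree; tested in HMLE shEcad cells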;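 also: 0% = median of negative and 100% = median of positive control wells; the first replicate is given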
MT1-MMP act inh – inhibitors of human MT1-MMP activation | P50281 | HT1080 RFP-PRO-GFP cells, GFP/RFP ratio fluorescence, overnight; percent of plate control window, DMSO zero | GFP/RFP ratio change, % at 20 µM | 0.061% of 360,000 active;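 active = GFP/RFP ratio change of at least 30% with cell ATP level not reduced by more than half and red fluorescence within 50% of control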; also: strong numbers were not always called active
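Assay system: RFP-PRO-GFP reporter HT1080 cells; read-out basis: GFP/RFP fluorescence ratio; benchmarks: DMSO wells and RFP-L50D-GFP cells; doses: 20 µM single dose, 1% DMSO; schedule: overnight cell settling, then overnight compound exposure, 37 °C, 5% CO2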
Rce1 inhib – blocks yeast Ras-converting enzyme; 0.27% of 290,000 active; Q03530; yeast membranes, quenched prenylated peptide cleavage fluorescence; calls only;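 active = fall in fluorescence gain of 50% or more versus controls, with final raw signal at or below 3038400; inconclusive = same 50% fall but final raw signal above 3038400; inactive = fall in fluorescence gain under 50%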;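 also: plate controls were neutral control wells for no effect and wells lacking membranes for full effect; tested at 10 µM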
PABP FP inh – blocks human PABP binding to poly(A) RNA; P11940; fluorescence polarization; inhibition, % at 35 µM; 1% of 290,000 active; AID 2014;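 active = 50% or more with normal probe brightness, or confirmed in later tests; inconclusive = above 50% with abnormal brightness, or retests that disagree; inactive = below 50% or failed in later tests; about a fifth of its hits are not listed in these tables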;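 also: calls also rest on retests at 20 µM and on dose response follow-up; controls were probe without protein and protein plus probe with vehicle; some compounds called inactive have numbers as strong as hits; many hits fall short of the cut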
Target sequence (P11940 whole entry, looked up): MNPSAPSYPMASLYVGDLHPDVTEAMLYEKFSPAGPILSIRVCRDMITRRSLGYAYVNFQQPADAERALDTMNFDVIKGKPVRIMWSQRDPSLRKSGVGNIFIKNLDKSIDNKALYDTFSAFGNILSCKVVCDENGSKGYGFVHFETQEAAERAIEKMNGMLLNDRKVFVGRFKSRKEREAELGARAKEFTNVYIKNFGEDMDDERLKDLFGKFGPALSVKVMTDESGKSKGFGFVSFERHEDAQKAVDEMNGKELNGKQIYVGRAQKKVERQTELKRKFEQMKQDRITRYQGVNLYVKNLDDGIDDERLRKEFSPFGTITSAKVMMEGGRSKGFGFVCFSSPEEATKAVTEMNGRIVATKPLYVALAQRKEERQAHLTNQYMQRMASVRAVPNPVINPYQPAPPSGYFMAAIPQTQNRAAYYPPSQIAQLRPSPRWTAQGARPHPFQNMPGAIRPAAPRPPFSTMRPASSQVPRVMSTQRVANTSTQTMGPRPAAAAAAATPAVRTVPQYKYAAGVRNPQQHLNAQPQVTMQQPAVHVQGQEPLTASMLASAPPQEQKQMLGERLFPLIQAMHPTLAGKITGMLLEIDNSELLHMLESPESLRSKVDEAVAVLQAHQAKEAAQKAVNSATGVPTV
eIF4H FP inh – inhibitors of RNA binding by human eIF4H | 0.94% of 290,000 active | eIF4H fluorescence polarization binding assay | inhibition, % at 35 µM | Q15056;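 active = 50% or more with normal probe brightness, or confirmed in later tests; inconclusive = above 50% with abnormal brightness, or retests that disagree; inactive = below 50% or failed in later tests; about a fifth of its hits are not listed in these tables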;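 also: calls also rest on retests at 20 µM and on dose response follow-up; 0% = protein and probe with vehicle and 100% = probe without protein; strong numbers were not always called active; many hits fall short of the cut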
HIV Env fusion – HIV envelope-mediated fusion inhibition; HeLa-JRFL Env/CEM21 cell fusion, luciferase; inhibition, % at 12.3 µM; 1.1% of 360,000 active;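 active = mean replicate inhibition score of at least 50 and every replicate individually at or above 50; inconclusive = only one of the two criteria met; inactive = mean below 50 and not all replicates reaching 50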;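 also: 0% = plate neutral controls and 100% = maraviroc near 300 nM; one replicate is shown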
UUG fidelity – modulators of start codon recognition fidelity in yeast. AID 602363. S. cerevisiae UUG-firefly luciferase reporter, luminescence/redox ratio. 0.13% of 350,000 active. activity score, % at 18.7 µM;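 active = replicate mean at a twofold rise or more, about +100% in these data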;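 also: firefly luciferase made from a UUG start codon reports start codon fidelity; reporter light over untreated wells divided by growth signal over untreated wells; some hits fall short of that in this replicate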
MT1-MMP act inh RFP – also measured in MT1-MMP act inh; calls as there; RFP signal change, %; measured here: RFP expression control read;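 0 = vehicle wells; hits needed this value within 50% of zero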
* marks the source's active call; other numbers are inactive results. This is a subset; rates above refer to the full screens.

How did O=C(O)c1cc(N/N=C/c2ccncc2)ccc1Cl do in these assays?
CSC inhib: 3.2; MT1-MMP act inh: 2.3; Rce1 inhib: inactive; PABP FP inh: 5.2; eIF4H FP inh: -4.9; HIV Env fusion: -11.8; UUG fidelity: -30.4; MT1-MMP act inh RFP: 7.2

How did COc1ccc(/C=C/C(=O)c2ccc(OC)cc2OC)c(OC)c1 do in these assays?
CSC inhib: -0.6; MT1-MMP act inh: -1.4; Rce1 inhib: inactive; PABP FP inh: 14.3; eIF4H FP inh: 6.1; UUG fidelity: -22.3; MT1-MMP act inh RFP: -2.8

Results for CCC(C)(C(=O)NC1CCCCC1)N(Cc1ccco1)C(=O)CNC(=O)c1ccccc1 (configuration not stated) ?
CSC inhib: 3.7; MT1-MMP act inh: -9.5; Rce1 inhib: inactive; PABP FP inh: -5.3; eIF4H FP inh: -1.0; UUG fidelity: 12.4; MT1-MMP act inh RFP: -0.6

Results for C=C(C)c1cccc(C(C)(C)NC(=O)NCCN(CC)CC)c1 ?
CSC inhib: -4.5; MT1-MMP act inh: 3.2; Rce1 inhib: inactive; PABP FP inh: -4.1; eIF4H FP inh: -10.0; HIV Env fusion: 10.0; MT1-MMP act inh RFP: 4.1

How did COc1ccccc1NC(=O)NC1(C(=O)N2CCN(C)CC2)CCCCC1 do in these assays?
CSC inhib: -7.7; MT1-MMP act inh: 0.3; Rce1 inhib: inactive; PABP FP inh: 3.4; eIF4H FP inh: -6.5; HIV Env fusion: -4.3; UUG fidelity: -16.8; MT1-MMP act inh RFP: 1.7

How did COc1ccc(N2CCCn3c2nc2c3c(=O)n(Cc3ccc(C)cc3)c(=O)n2C)c(OC)c1 do in these assays?
CSC inhib: -15.4; MT1-MMP act inh: 8.3; Rce1 inhib: inactive; PABP FP inh: -16.8; eIF4H FP inh: -1.6; HIV Env fusion: 20.0; UUG fidelity: -2.2; MT1-MMP act inh RFP: -9.5

Results for Cc1cc(C(=O)NNC(=O)C2CCCC2)c(C)o1 ?
CSC inhib: -11.6; MT1-MMP act inh: 4.0; Rce1 inhib: inactive; PABP FP inh: 26.7; eIF4H FP inh: -2.0; HIV Env fusion: -11.7; UUG fidelity: -2.8; MT1-MMP act inh RFP: -3.0

How did COC(=O)c1nc2nc(C)cc(C(F)(F)F)n2n1 do in these assays?
CSC inhib: 3.8; MT1-MMP act inh: -4.7; Rce1 inhib: inactive; PABP FP inh: -6.2; eIF4H FP inh: 8.7; HIV Env fusion: -27.1; UUG fidelity: -20.3; MT1-MMP act inh RFP: -2.6

What do the screens show for `Clc1ccc(-c2cc(CSc3cccc(Cl)c3)on2)cc1`?
CSC inhib: -1.1; MT1-MMP act inh: 4.7; Rce1 inhib: inactive; PABP FP inh: 1.3; eIF4H FP inh: 0.8; UUG fidelity: -13.6; MT1-MMP act inh RFP: 4.3

How did CCCCOC(=O)C1=C(C)NC(=O)NC1c1ccc(N(C)C)cc1 (configuration not stated) do in these assays?
CSC inhib: 1.1; MT1-MMP act inh: 0.2; Rce1 inhib: inactive; PABP FP inh: -5.9; eIF4H FP inh: 1.4; HIV Env fusion: 10.4; UUG fidelity: -9.9; MT1-MMP act inh RFP: 0.6

How did CN(C)CCNC(=O)/C=N/O do in these assays?
CSC inhib: -9.3; MT1-MMP act inh: -1.5; Rce1 inhib: inactive; PABP FP inh: -4.2; eIF4H FP inh: -1.7; HIV Env fusion: 17.1; UUG fidelity: -3.5; MT1-MMP act inh RFP: 1.7

Results for CC(=O)Nc1cccc(Oc2nc(NCC3CC3)nc3ccsc23)c1 ?
MT1-MMP act inh: -2.9; HIV Env fusion: 14.7; UUG fidelity: -4.1; MT1-MMP act inh RFP: -18.6

How did CCN(Cc1cnn(C)c1)Cc1nc(C2(c3ccc(C)cc3)CCCC2)no1 do in these assays?
CSC inhib: -18.3; MT1-MMP act inh: -2.0; Rce1 inhib: inactive; PABP FP inh: -3.3; eIF4H FP inh: -1.4; HIV Env fusion: -3.3; UUG fidelity: -5.6; MT1-MMP act inh RFP: -7.1

What do the screens show for `CC(C)(C)c1cc(NC(=O)COc2ccc(Br)cc2)n(-c2ccccc2)n1`?
CSC inhib: -10.5; MT1-MMP act inh: 3.4; PABP FP inh: 11.2; eIF4H FP inh: -1.3; HIV Env fusion: 27.1; UUG fidelity: -9.9; MT1-MMP act inh RFP: 0.4

What do the screens show for `COc1cccc(C2C3=C(N=c4s/c(=C\c5ccccc5O)c(=O)n42)c2ccccc2CC3)c1OC` (configuration not stated)?
CSC inhib: -10.3; Rce1 inhib: inactive; PABP FP inh: -2.6; eIF4H FP inh: -2.5

How did O=C(CCS(=O)(=O)c1cccc2nsnc12)NCc1ccccc1Cl do in these assays?
CSC inhib: -10.6; MT1-MMP act inh: -0.3; Rce1 inhib: inactive; PABP FP inh: 3.5; eIF4H FP inh: -2.5; HIV Env fusion: -51.7; MT1-MMP act inh RFP: -2.2

How did CC(C)(O)C1Cc2cc(/C=C/C(=O)O)c(O)cc2O1 (configuration not stated) do in these assays?
MT1-MMP act inh: 4.7; Rce1 inhib: inactive; PABP FP inh: 33.0; eIF4H FP inh: 13.8; HIV Env fusion: -13.3; MT1-MMP act inh RFP: 3.5

Results for O=C(Nc1ccc2c(c1)OCCO2)C1CCCN1C(=O)Nc1ccc(F)cc1 (configuration not stated) ?
MT1-MMP act inh: -0.3; Rce1 inhib: inactive; PABP FP inh: -1.8; eIF4H FP inh: -9.1; HIV Env fusion: -18.0; UUG fidelity: -14.0; MT1-MMP act inh RFP: 2.1

Results for OC12CC3C[C@H](C1)C(N1CCOCC1)[C@@H](C3)C2 (some centres not stated) ?
CSC inhib: -8.3; MT1-MMP act inh: 3.0; Rce1 inhib: inactive; PABP FP inh: -7.4; eIF4H FP inh: -1.3; HIV Env fusion: 1.1; UUG fidelity: 0.7; MT1-MMP act inh RFP: 0.8

What do the screens show for `CCOc1ccc(NC(=O)CN(C)C(=O)c2cc(S(=O)(=O)N3CCCCC3)ccc2Cl)cc1OCC`?
CSC inhib: -11.6; MT1-MMP act inh: 2.2; Rce1 inhib: inactive; HIV Env fusion: 1.7; UUG fidelity: -8.0; MT1-MMP act inh RFP: -1.2

What do the screens show for `O=S(=O)(c1ccc(NC(=S)N/N=C/c2cccc(Oc3ccccc3)c2)cc1)N1CCOCC1`?
CSC inhib: -7.9; MT1-MMP act inh: 3.0; Rce1 inhib: inactive; PABP FP inh: 5.0; eIF4H FP inh: -2.3; HIV Env fusion: -1.9; MT1-MMP act inh RFP: -1.4

Results for COc1ccccc1Nc1ncnc2c1c(C)c(C)n2CCCN(C)C ?
CSC inhib: 1.3; MT1-MMP act inh: 4.5; Rce1 inhib: inactive; PABP FP inh: -1.0; eIF4H FP inh: -4.2; HIV Env fusion: 6.5; UUG fidelity: -6.8; MT1-MMP act inh RFP: 1.9

How did O=C(Oc1cccc2c(=O)[nH]ccc12)c1ccccc1 do in these assays?
CSC inhib: 3.6; MT1-MMP act inh: -0.8; PABP FP inh: 2.7; eIF4H FP inh: 0.7; UUG fidelity: 0.2; MT1-MMP act inh RFP: 3.5

How did Cc1oc(-c2cccs2)nc1CN1CCC(c2ccccc2)CC1 do in these assays?
CSC inhib: 8.6; MT1-MMP act inh: -8.0; Rce1 inhib: inactive; PABP FP inh: -14.1; eIF4H FP inh: -4.8; HIV Env fusion: 9.8; UUG fidelity: 1.1; MT1-MMP act inh RFP: 4.9

Results for CCOc1ccc2nc(NC(=O)CSc3cn[nH]n3)sc2c1 ?
CSC inhib: 11.2; MT1-MMP act inh: 7.9; Rce1 inhib: inactive; PABP FP inh: 1.9; eIF4H FP inh: 6.0; HIV Env fusion: -40.0; UUG fidelity: -27.0; MT1-MMP act inh RFP: 5.3

Results for Cc1cccc(NC(=O)c2ccc(CN3CCN(Cc4ccccc4)CC3)cc2)c1 ?
CSC inhib: 8.9; MT1-MMP act inh: 1.8; Rce1 inhib: inactive; PABP FP inh: 1.4; eIF4H FP inh: -0.4; HIV Env fusion: -0.6; MT1-MMP act inh RFP: -2.2

Results for COc1ccc(NC(=O)CC2C(=O)N(C)C(=S)N2Cc2ccncc2)cc1 (configuration not stated) ?
CSC inhib: 10.0; MT1-MMP act inh: -3.8; Rce1 inhib: inactive; PABP FP inh: 4.5; eIF4H FP inh: -1.8; HIV Env fusion: -7.0; UUG fidelity: 1.3; MT1-MMP act inh RFP: -3.5

What do the screens show for `COc1cc(/C=N/N=C2/C(=O)Nc3ccccc32)cc(OC)c1O`?
CSC inhib: 0.6; MT1-MMP act inh: 5.3; Rce1 inhib: inactive; PABP FP inh: 6.9; eIF4H FP inh: -2.0; HIV Env fusion: -128.5; MT1-MMP act inh RFP: 4.8

Results for c1ccc(Cn2nnnc2C(c2ccccc2)N2CCN(c3nc4ccccc4s3)CC2)cc1 (configuration not stated) ?
CSC inhib: 10.7; MT1-MMP act inh: -11.4; Rce1 inhib: inactive; PABP FP inh: 2.4; eIF4H FP inh: -0.7; UUG fidelity: -18.0; MT1-MMP act inh RFP: -16.1

How did O=C1c2ccccc2C(=O)N1CCCCN(C(=O)c1ccc([N+](=O)[O-])cc1)c1ccc(Cl)cc1 do in these assays?
CSC inhib: -2.3; MT1-MMP act inh: -1.6; Rce1 inhib: inactive; PABP FP inh: 3.8; eIF4H FP inh: 9.5; HIV Env fusion: 0.3; UUG fidelity: -12.0; MT1-MMP act inh RFP: -10.7

What do the screens show for `CCCCN(C(=O)CN1C(=O)C2CCCCC2C1=O)c1c(N)n(CCC)c(=O)[nH]c1=O` (configuration not stated)?
MT1-MMP act inh: -0.6; Rce1 inhib: inactive; HIV Env fusion: 3.4; UUG fidelity: -15.2; MT1-MMP act inh RFP: -1.6

Results for O=C(Cc1ccccc1)N1CCC(c2nc3ccccc3[nH]2)CC1 ?
CSC inhib: -11.5; MT1-MMP act inh: 4.4; Rce1 inhib: inactive; PABP FP inh: -10.1; eIF4H FP inh: -7.0; HIV Env fusion: -5.1; UUG fidelity: -10.5; MT1-MMP act inh RFP: 1.1

What do the screens show for `CC(C)C[C@H]1CN([C@@H](Cc2ccccc2)CN2CCC[C@@H]2CN2C(=O)C(=O)NC[C@@H]2Cc2ccccc2)C(=O)C(=O)N1CC1CCCCC1`?
MT1-MMP act inh: 10.9; HIV Env fusion: inconclusive; UUG fidelity: 25.1; MT1-MMP act inh RFP: -5.4

How did CCOC(=O)C(C)(C)N(Cc1cccc(C)c1)S(=O)(=O)c1ccc(Cl)c([N+](=O)[O-])c1 do in these assays?
CSC inhib: 24.4; MT1-MMP act inh: -4.0; Rce1 inhib: inactive; PABP FP inh: 5.1; eIF4H FP inh: 4.8; HIV Env fusion: 21.8; UUG fidelity: -25.3; MT1-MMP act inh RFP: -12.7

How did CCCCC(=O)Nc1cc(OCC)c(NC(=O)c2ccccc2[N+](=O)[O-])cc1OCC do in these assays?
CSC inhib: -6.6; MT1-MMP act inh: 3.6; Rce1 inhib: inactive; PABP FP inh: -12.8; eIF4H FP inh: 11.2; UUG fidelity: -8.7; MT1-MMP act inh RFP: -1.6

Results for COc1ccccc1CNC(=O)COC(=O)/C=C/c1cccs1 ?
CSC inhib: -1.6; MT1-MMP act inh: 2.4; Rce1 inhib: inactive; PABP FP inh: -2.5; eIF4H FP inh: -13.1; HIV Env fusion: 2.3; MT1-MMP act inh RFP: 5.3

As a short view, part of the list above:
How did CCCCC(=O)Nc1cc(OCC)c(NC(=O)c2ccccc2[N+](=O)[O-])cc1OCC do in these assays?
CSC inhib: -6.6; MT1-MMP act inh: 3.6; Rce1 inhib: inactive; PABP FP inh: -12.8; eIF4H FP inh: 11.2; UUG fidelity: -8.7; MT1-MMP act inh RFP: -1.6

Results for COc1ccccc1CNC(=O)COC(=O)/C=C/c1cccs1 ?
CSC inhib: -1.6; MT1-MMP act inh: 2.4; Rce1 inhib: inactive; PABP FP inh: -2.5; eIF4H FP inh: -13.1; HIV Env fusion: 2.3; MT1-MMP act inh RFP: 5.3
